Yeast UUG start = yeast start codon fidelity modulation | 0.13% of 350,000 active | S. cerevisiae UUG-firefly luciferase reporter, luminescence/redox ratio | AID 602363 | activity score, % at 18.7 µM;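 active = replicate mean at a twofold rise or more, about +100% in these data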;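 note: firefly luciferase made from a UUG start codon reports start codon fidelity; reporter light over untreated wells divided by growth signal over untreated wells; some hits fall short of that in this replicate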
eIF4H FP inh = inhibitors of RNA binding by human eIF4H | Q15056 | eIF4H fluorescence polarization binding assay | inhibition, % at 35 µM | 0.94% of 290,000 active | AID 2012;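 active = 50% or more with normal probe brightness, or confirmed in later tests; about a fifth of its hits are not listed in these tables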;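 note: calls also rest on retests at 20 µM and on dose response follow-up; 0% = protein and probe with vehicle and 100% = probe without protein; strong numbers were not always called active; many hits fall short of the cut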
MT1-MMP act inh = MT1-MMP (human) activation inhibition | HT1080 RFP-PRO-GFP cells, GFP/RFP ratio fluorescence, overnight; percent of plate control window, DMSO zero | P50281 | 0.061% of 360,000 active | GFP/RFP ratio change, % at 20 µM;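 active = GFP/RFP ratio change of at least 30% with cell ATP level not reduced by more than half and red fluorescence within 50% of control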; note: strong numbers were not always called active
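Assay system: HT1080 cells carrying an RFP-PRO-GFP reporter | Dosing: Single dose of 20 µM compound, 1% DMSO final | Incubation: Cells overnight before dosing, compound overnight, 37 °C, 5% CO2 | Evaluation: GFP/RFP fluorescence ratio | Control set: DMSO and RFP-L50D-GFP cell wells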
Env fusion inh = inhibitors of HIV Env-mediated cell fusion | inhibition, % at 12.3 µM | 1.1% of 360,000 active | HeLa-JRFL Env/CEM21 cell fusion, luciferase | AID 651610;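 active = mean replicate inhibition score of at least 50 and every replicate individually at or above 50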;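 note: 0% = plate neutral controls and 100% = maraviroc near 300 nM; one replicate is shown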
CSC inhib = cancer stem cell inhibition | cancer stem cell-like cells viability, luminescence | AID 2717 | 1.1% of 300,000 active | inhibition, % at 7.5 µM;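 active = mean at 75% or more and at least half the replicates too; tested in HMLE shEcad cells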;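 note: 0% = median of negative and 100% = median of positive control wells; the first replicate is given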
Rce1 inh = inhibitors of yeast Ras-converting enzyme; Q03530; 0.27% of 290,000 active; AID 2563; yeast membranes, quenched prenylated peptide cleavage fluorescence; calls only;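 active = fall in fluorescence gain of 50% or more versus controls, with final raw signal at or below 3038400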;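 note: plate controls were neutral control wells for no effect and wells lacking membranes for full effect; tested at 10 µM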
Target sequence (Q03530 whole entry, looked up): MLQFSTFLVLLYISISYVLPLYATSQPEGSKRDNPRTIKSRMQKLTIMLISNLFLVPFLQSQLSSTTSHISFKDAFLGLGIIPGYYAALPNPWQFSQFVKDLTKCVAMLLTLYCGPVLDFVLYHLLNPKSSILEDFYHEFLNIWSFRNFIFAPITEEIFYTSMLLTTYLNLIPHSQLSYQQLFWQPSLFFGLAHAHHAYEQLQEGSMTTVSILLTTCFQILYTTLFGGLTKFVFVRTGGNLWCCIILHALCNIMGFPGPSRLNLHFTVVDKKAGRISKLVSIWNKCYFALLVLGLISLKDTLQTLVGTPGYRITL
PABP polyA inh = PABP-poly(A) binding inhibition; PABP-poly(A) RNA binding, fluorescence polarization; inhibition, % at 35 µM; 1% of 290,000 active; AID 2014;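 active = 50% or more with normal probe brightness, or confirmed in later tests; about a fifth of its hits are not listed in these tables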;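 note: calls also rest on retests at 20 µM and on dose response follow-up; controls were probe without protein and protein plus probe with vehicle; some compounds called inactive have numbers as strong as hits; many hits fall short of the cut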
Target sequence (P11940 whole entry, looked up): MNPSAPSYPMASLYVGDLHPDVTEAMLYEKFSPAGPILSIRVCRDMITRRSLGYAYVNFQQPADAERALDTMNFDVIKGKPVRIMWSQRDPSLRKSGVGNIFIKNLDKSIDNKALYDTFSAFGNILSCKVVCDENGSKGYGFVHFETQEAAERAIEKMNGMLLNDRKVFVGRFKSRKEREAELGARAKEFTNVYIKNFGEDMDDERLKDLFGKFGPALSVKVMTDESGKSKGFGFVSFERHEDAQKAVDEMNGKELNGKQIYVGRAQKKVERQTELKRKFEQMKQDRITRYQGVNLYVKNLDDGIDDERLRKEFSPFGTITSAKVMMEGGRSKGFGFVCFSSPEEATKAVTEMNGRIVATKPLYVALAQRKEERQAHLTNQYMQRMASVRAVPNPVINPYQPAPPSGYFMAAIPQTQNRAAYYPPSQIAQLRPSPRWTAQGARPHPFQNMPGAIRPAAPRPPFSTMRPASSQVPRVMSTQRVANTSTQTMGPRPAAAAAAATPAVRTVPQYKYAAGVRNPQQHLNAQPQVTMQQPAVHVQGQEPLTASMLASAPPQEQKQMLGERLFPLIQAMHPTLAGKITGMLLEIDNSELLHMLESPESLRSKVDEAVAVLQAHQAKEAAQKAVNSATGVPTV
eIF4H FP inh retest = further read-out of eIF4H FP inh, marked with its call; inhibition, %; compound at 20 µM; confirmation average;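 mean of two retest wells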
PABP polyA inh retest = recorded beside PABP polyA inh, whose call it bears; inhibition, %; compound at 20 µM; confirmation repeats;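 mean of two retest wells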
MT1-MMP act inh RFP = second read-out of MT1-MMP act inh, no call of its own (marks repeat the call); RFP signal change, %; measured here: RFP expression control read;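 0 = vehicle wells; hits needed this value within 50% of zero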
An asterisk follows results filed as active; i = inactive; x = no result given; & = joins results of further samples.

SMILES | Yeast UUG start | eIF4H FP inh | MT1-MMP act inh | MT1-MMP act inh RFP | Env fusion inh | CSC inhib | Rce1 inh | PABP polyA inh | others
O=[N+]([O-])c1cc(C(F)(F)F)cc([N+](=O)[O-])c1N1CCN(S(=O)(=O)c2ccccc2)CC1 | -14 | -1 | -7 | -16 | -28 | 14 | i | 22
Cn1c(N)c(C(=O)COC(=O)/C=C/c2ccc(OC(F)F)cc2)c(=O)n(C)c1=O | x | -8 | -2 | -3 | 27 | -3 | i | -14
O=C1NC(=Nc2ccc3ccccc3c2)S/C1=C/c1ccco1 | -7 | 80* | -3 | 2 | -10 | 10 | i | -6 | eIF4H FP inh retest=59*;PABP polyA inh retest=28
O=C(NCc1ccccn1)C1CC(c2ccc(Cl)c(Cl)c2)=NO1 (stereo unspecified) | -4 | -10 | 4 | 1 | -481 | x | i | -2
CCN1C(=NCc2ccccc2)N[C@@H](c2ccccc2)[C@H](C(=O)OC)[C@H]1C | -5 | -4 | 6 | 6 | -71 | -3 | i | 30
COC1=C(OC)c2ccccc2C(C(=O)O)N/C1=C(/C)Nc1ccncc1 (stereo unspecified) | -25 | -3 | 0 | -3 | x | -3 | i | -13
CCOC(=O)c1cnn(C)c1NC(=O)c1ccc(Cl)cc1Cl | -13 | 2 | 1 | 3 | x | -4 | i | 2
CCCC(=O)N1CCN(c2nc3ccc(CC)cc3s2)CC1 | -13 | -3 | 4 | -7 | 0 | 5 | i | 3
COc1ccc2c(c1)CCc1sc(NC(=O)c3ccc(C)cc3)nc1-2 | 0 | 0 | -2 | 1 | x | -2 | i | 0
CC(=O)Nc1cc(C(=O)N2CCCC2)ccc1S(=O)(=O)c1ccc(C)cc1 | 1 | -9 | 0 | -5 | x | -9 | i | -11
CC(=O)Nc1ccc(C(=O)NCC(c2ccco2)N(C)C)cc1 (stereo unspecified) | -17 | -3 | -2 | 1 | -1 | 5 | i | -2
O=C(Nc1cccc(-c2ccc(N3CCCCC3)nn2)c1)c1ccco1 | -3 | x | -3 | -5 | -79 | x | i | x
O=C(COC(=O)c1ccccc1O)NCCCc1ccccc1 | x | 0 | 1 | 3 | -3 | x | i | 4
C=C(C)Cn1c(N2CCCC2)nc2c1c(=O)[nH]c(=O)n2C | -1 | -4 | -2 | 2 | 12 | -9 | i | -4
CCOC(=O)C1CCCN(Cc2ccc(OCc3ccccc3)c(OC)c2)C1 (stereo unspecified) | -3 | 25 | 3 | -4 | 10 | 11 | i | 7
Cc1cccc(C)c1C(O)c1ncc(-c2ccc(Cl)cc2)[nH]1 (stereo unspecified) | -11 | x | 5 | -3 | 3 | x | x | x
CCOC(=O)c1sc(NC(=S)NC(=O)C23CC4CC(CC(C4)C2)C3)cc1C | -10 | -2 | -10 | -9 | 0 | 64 | i | -4
Cc1cccc(NC(=O)c2cc(-c3cc(C)c(C)cc3O)n[nH]2)c1 | -8 | 3 | 4 | 4 | -66 | x | i | 6
CSc1nc(C)c(C(=O)C[n+]2ccccc2C)cc1C#N | x | -4 | -2 | 2 | 1 | 4 | i | -1
C=C(C)C1CC=C(C)/C(=N/NC(=O)c2ccc(NC(=O)CCC)cc2)C1 (stereo unspecified) | -15 | -3 | 1 | -2 | -45 | x | i | -2

In the list so far, 3 contain an NH in an aromatic ring.
SMILES | Yeast UUG start | eIF4H FP inh | MT1-MMP act inh | MT1-MMP act inh RFP | Env fusion inh | CSC inhib | Rce1 inh | PABP polyA inh | others
C=C(C)Cn1c(N2CCCC2)nc2c1c(=O)[nH]c(=O)n2C | -1 | -4 | -2 | 2 | 12 | -9 | i | -4
Cc1cccc(C)c1C(O)c1ncc(-c2ccc(Cl)cc2)[nH]1 (stereo unspecified) | -11 | x | 5 | -3 | 3 | x | x | x
Cc1cccc(NC(=O)c2cc(-c3cc(C)c(C)cc3O)n[nH]2)c1 | -8 | 3 | 4 | 4 | -66 | x | i | 6

Other results
SMILES | Yeast UUG start | eIF4H FP inh | MT1-MMP act inh | MT1-MMP act inh RFP | Env fusion inh | CSC inhib | Rce1 inh | PABP polyA inh | others
O=C(c1ccccc1)N1CCN=C1SCc1ccc([N+](=O)[O-])cc1 | x | -5 | 1 | -2 | 9 | 1 | i | -7
COc1ccc(CCN2C(=O)NC(NS(=O)(=O)c3ccc(Cl)cc3)(C(F)(F)F)C2=O)cc1OC (stereo unspecified) | 0 | 1 | -11 | -3 | -4 | -2 | i | -1
CCC(C)NC(=O)CCSc1ccc(C)cc1 (stereo unspecified) | x | -2 | 5 | 6 | -17 | -5 | i | -1
C[C@@H]1CN([C@@H](C)CO)C(=O)c2cc(Br)cnc2O[C@@H]1CN(C)S(=O)(=O)c1ccc(F)cc1 | 6&10&17 | x | 1 | 3 | -3 | x | x | x
COC(=O)c1scc(C)c1NS(=O)(=O)c1ccc(NC(C)=O)cc1 | x | -7 | 0 | 3 | 21 | 0 | i | -9
O=C(O)c1ccc(NC(=O)C2CC=CCC2C(=O)O)cc1 (stereo unspecified) | 0 | 0 | -1 | 2 | x | -14 | i | 12
COc1ccc(CNC(=O)CSc2nc3c(oc4ccccc43)c(=O)n2CC2CCCO2)cc1 (stereo unspecified) | -2 | x | -2 | -4 | 8 | -9 | i | x
COCCNC(=O)Cn1cc(C(=S)N2CCCCC2)c2ccccc21 | -21 | 4 | 0 | 3 | 3 | -6 | i | 18
Cc1ccc(S(=O)(=O)n2c(C)nc3cc(C)ccc32)cc1 | -11 | 3 | 3 | 1 | -47 | 4 | i | 6
COc1cc2c3c(c1)-c1c(sn(-c4cc(OC)ccc4OC)c1=S)C(C)(C)N3C(=O)C2=O | -10 | -2 | 12 | 1 | -100 | 28 | i | -12
COC(=O)[C@@H](Cc1ccccc1)NC(=O)[C@H]1O[C@@H](n2cnc3c(N)ncnc32)[C@H](O)[C@@H]1O | 8 | x | 5 | 8 | 12 | x | x | x
C=C[C@@H]1c2cccc(C)c2N(S(=O)(=O)c2ccc(C)cc2)[C@H](c2ccccc2)C1(C#N)S(=O)(=O)c1ccccc1 (stereo partly specified) | -20 | x | 4 | -3 | 22 | x | x | x
COC(=O)c1ccccc1NC(=O)c1cccc(COc2ccccc2Cl)c1 | -6 | -6 | -5 | -16 | -277 | -5 | i | -9
O=C(Nc1ccc(Cl)c(Cl)c1)OCCNC(=O)c1ccncc1 | -4 | -1 | 1 | -9 | -14 | -1 | i | -3
N#C/C(=C\c1ccc(N2CCOCC2)c([N+](=O)[O-])c1)c1nc2ccccc2[nH]1 | x | 4 | -4 | -12 | x | 15 | i | 5
COc1cc(/C=C2\SC(N)=NC2=O)ccc1O | -5 | -10 | -30 | -6 | 35 | x | i | -11
Cc1cccn2c(=O)c3cc(C#N)c(=NC(=O)c4ccncc4)n(CCCOC(C)C)c3nc12 | x | 75* | 0 | -1 | x | 9 | i | 63*
CCOc1ccc(CC(=O)OCc2cc(=O)n3cc(Br)ccc3n2)cc1 | -10 | -10 | 1 | 1 | 3 | -6 | i | -6
Cc1nc2ccc(NS(=O)(=O)c3ccc4c(c3)OCCO4)cc2s1 | -1 | -13 | -5 | -29 | x | 8 | i | 4
CCOC(=O)C(Cc1ccccc1)C(=O)Nc1nccs1 (stereo unspecified) | -9 | -3 | 0 | -1 | x | -8 | i | -9
Cn1c(NC(=O)c2ccccc2F)cc(=O)n(C)c1=O | -15 | 5 | 0 | 5 | -12 | -6 | i | -2
COc1ccccc1NS(=O)(=O)c1cc(-c2cc(C)no2)ccc1OC | -7 | 2 | 3 | -15 | 24 | 17 | i | -3
CCCN(c1ccc(C(C)C)cc1)S(=O)(=O)c1c(C)[nH]c(=O)[nH]c1=O | x | -2 | -4 | -5 | x | -1 | i | -10
O=C(Nn1cc(C(=O)N2CCN(c3ccccc3F)CC2)c2ccccc2c1=O)c1cnccn1 | -11 | -2 | 8 | 2 | -79 | 7 | i | 0
O=C(CCc1nnc2n(Cc3ccccc3)c(=O)c3ccccc3n12)NCCN1CCOCC1 | -9 | 3 | 2 | 7 | -16 | 0 | i | 8
CNC(=O)C1CC(=O)N(c2ccc(F)c(Cl)c2)C1 (stereo unspecified) | -19 | 4 | 1 | 2 | x | -12 | i | 1
COC(=O)/C(=N\Nc1ccc(Cl)cc1)Sc1nnc(-c2ccc(OC)cc2)n1C | -17 | -9 | 16 | 6 | x | -13 | i | -14
COC(=O)C1=C(C)N(C(C)C)C(=O)C1(NC(=O)C1CCCCC1)C(F)(F)F (stereo unspecified) | 4 | -9 | 1 | 3 | x | -6 | i | 0
S=C(Nc1ccc(Cl)cc1)N1CCCC1 | -25 | 14 | 5 | 4 | -17 | x | i | -4
NC(=O)CSc1nc(-c2ccccc2)c(-c2ccccc2)o1 | -14 | 0 | 4 | -4 | x | 5 | i | 2
CCCNC(=S)N1CCC(NC(=O)Nc2ccc(C)cc2)CC1 | x | -3 | 2 | 6 | -1 | 1 | i | 7
COc1ccc(-c2cc3cc(-c4cc(OC)c(OC)c(OC)c4)ccc3o2)cc1 | -13 | x | 2 | 0 | -4 | -3 | x | x
COc1ccc(NC(=O)CCNS(=O)(=O)c2ccc(C)c(C)c2)cc1OC | -9 | -1 | 0 | -4 | -11 | -5 | i | 17
Cc1cc(NC(=O)c2cc(-c3ccccn3)nc3ccc(Br)cc23)no1 | -23 | 5 | -4 | -8 | -177 | 18 | i | -5
CC(=O)N1CCc2cc(C(=O)CN3CCCCC3)ccc21 | 7 | -8 | 1 | 4 | 9 | -10 | i | 8
COc1ccc(N(Cc2ccccc2)S(=O)(=O)c2ccc(C)cc2)cc1 | -14 | -4 | -5 | -3 | -21 | -5 | i | 6
COc1ccc2cc(-c3nc4ccccc4n3C)c(=O)oc2c1 | -15 | -10 | 7 | 1 | x | 0 | i | 6
Cc1nnc(SCc2c(Cl)cccc2[N+](=O)[O-])s1 | x | 4 | x | x | -4 | 9 | x | -15
CN(C)C=NC1=NN(c2cccc(C(F)(F)F)c2)CC1 | x | 3 | 2 | 7 | x | -17 | i | 10
O=C(c1ccccc1)c1cccn1CC(=O)N1CCc2ccccc2C1 | -5 | 0 | -1 | 4 | 15 | 0 | i | -3
O=C(COC(=O)C1(c2ccccc2F)CCCC1)NC1CCS(=O)(=O)C1 (stereo unspecified) | -10 | -11 | -3 | -2 | x | -2 | i | -2
Cc1cccc(-c2nc(N)nc(N)n2)c1 | x | -11 | -3 | -2 | -13 | -6 | i | -5
COc1ccc(NS(=O)(=O)c2ccc(S(=O)(=O)N3CCOCC3)cc2)cc1 | -7 | -9 | 3 | -7 | -3 | -8 | i | -7
COc1ccc(/C=N/NC(=O)CC(=O)NC2CCCCC2)cc1 | -16 | 9 | -1 | 0 | 20 | -7 | i | 18
CC(NC(=O)Nc1ccccn1)N1C(=O)C2C3C=CC(C3)C2C1=O (stereo unspecified) | -22 | -1 | -1 | 0 | x | 4 | i | -6
CCCCCSc1nnc2c(n1)OC(C)N(C(C)=O)c1ccccc1-2 (stereo unspecified) | -10 | 7 | 2 | 3 | -1 | -15 | i | 6
COc1ccc(NS(=O)(=O)c2cc(Br)cc3c2N(C(C)=O)CC3)cc1 | -18 | -15 | -8 | -12 | 28 | 64 | i | 2
COc1cccc(CN2CCC(C(=O)N3CCN(Cc4ccc5c(c4)OCO5)CC3)CC2)c1OC | -12 | 2 | 4 | 2 | 12 | 4 | i | 7
COCCN1C[C@@H](CO)O[C@@H](n2cnc3c(N4CCN(c5ccccc5)CC4)ncnc32)C1 | -11 | x | 0 | -2 | 6 | x | x | x
CCCOC(=O)c1ccc(Oc2cn[nH]c2-c2ccc(OC)cc2O)cc1 | -16 | -4 | -1 | -18 | x | 104* | i | 11
CC(C)=C(NC(=O)c1ccccc1)C(=O)NCc1ccccc1 | x | -2 | -2 | 3 | -4 | 3 | i | 5

Source: PubChem BioAssay
